Screening results deposited in PubChem by Broad Institute.
Tg IFNy HTS – T. gondii growth inhibition with IFN-gamma, primary screen, cell-based. Toxoplasma gondii growth in IFN-gamma-treated host cells; active compounds read low; reference of the scale not given here. activity change, negative = inhibition, %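 (about 20 µM by stock and volumes)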. actives 3.8% (n = 69,000);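 active = below -70%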;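 also: host cells are HeLa cells infected with Toxoplasma gondii; parasite growth read as luciferase light; one replicate is shown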
Active calls of the source: *; i = inactive; & = joins results of further samples. A portion of the library (hit frequency here may not be typical).

SMILES	Tg IFNy HTS
COCCn1c(C)cc2cc(NC(=O)C(C)(C)n3cncn3)ccc21	7.0
Cc1nn(C(=O)c2cc3c(s2)CCCC3)c(-c2ccccc2)c1Sc1ccccc1	-22.6
O=C(c1ccncc1)N1C[C@H]2[C@@H](c3ccccc31)[C@@H](CO)N2C(=O)CN1CCOCC1	3.4
CSc1ccccc1NC(=O)CCC(=O)N1CCCN(C(=O)C2CC2)CC1	-53.0
Cn1c(=O)n(C)c2cc(CNC(=O)Cc3noc4ccccc34)ccc21	6.1
O=C(CCN1CCOCC1)C1CC2(CO1)CN(C(=O)c1ccc(F)cc1)c1ccccc12 (stereo not given)	11.4
COc1ccccc1CN1C(=O)C2CC(=O)OC23C1C(=O)N(C1CCCCCC1)C3CC(C)=O (stereo not given)	-3.6
c1ccc(-c2csc3ncnc(NCc4ccccn4)c23)cc1	-74.3*
CSc1ccc(CNC(=O)c2nc(Nc3ccc(C)cc3)c3ccccc3n2)cc1	50.4
Cc1cc(NC(=O)c2cccc(CN3CCNC(=O)C3)c2)n(C)n1	-38.7
COCCn1cc2c(n1)C(CNS(=O)(=O)N(C)C)OCC2 (stereo not given)	0.6
CCC(C(=O)N1C[C@H]2CC=CC[C@H]2C1)N1Cc2ccccc2C1=O (stereo not given in full)	1.4
O=C(Cn1c(=O)c(S(=O)(=O)c2ccccc2)cc2ccccc21)NCc1ccccc1Cl	-13.2
c1ccc([C@H]2CN3CCSC3=N2)cc1	19.2
CCc1cccc(NC(=O)CN2CCC3(CC2)N=C(c2ccc(F)cc2)C(=O)N3)c1	34.0
Cc1cc(-n2nnc(C(=O)N3CCC(N4CCCCC4)CC3)c2-c2ccncc2)ccc1F	6.5
Cc1ccccc1S(=O)(=O)N1CC[C@H]2[C@H](CO)Nc3ccc(-c4ccc(F)cc4)cc3[C@H]21	-25.5
Cc1ccc(CNC(=O)c2nc(Nc3ccccc3)c3ccccc3n2)cc1	57.5
CN1C(=O)c2cc(NC(=O)c3cccc(F)c3)ccc2OC[C@H]2O[C@@H](CC(=O)NCC3CCCCC3)CC[C@@H]21	-21.7&-43.7
Cc1occc1C(=O)N1C[C@H](Oc2ncccc2F)[C@@H]2OCCC[C@@H]21	-0.8
COc1ccc(NC2CCCN(C(=O)c3ccccc3-n3cncn3)C2)cc1 (stereo not given)	-3.5
COc1cccc(-c2[nH]ncc2C(=O)N2CCC3(CCNC(=O)CC3)CC2)c1	-10.7
CC(C)c1cc(C2CCN(C(=O)c3cccc(Cn4cccn4)c3)CC2)[nH]n1	-2.4
O=C(Cc1ccccn1)N1CC2(C1)[C@H](c1ccccc1)[C@H](CO)N2C(=O)c1ccncc1	-56.4
Cc1ccc(C2(O)C(=O)N(Cc3nc(-c4ccccc4)oc3C)c3ccccc32)cc1 (stereo not given)	-48.1
Going on with the list.
SMILES	Tg IFNy HTS
OC[C@H]1[C@@H](c2ccccc2)C2(CN(CCC(F)(F)F)C2)N1Cc1cncnc1	-30.2
COc1cccc(CC2CN(C(=O)c3ccc(S(N)(=O)=O)cc3)CCO2)c1 (stereo not given)	5.3
Cn1cc(-c2cnc(Nc3ccccc3)nc2)cc1C(=O)NCCO	116.2
NCCC(=O)N1c2ccccc2Sc2ccccc21	32.4
O=C(CSc1nc2ccccc2o1)N1CCc2c([nH]c3ccccc23)C1C(F)(F)F (stereo not given)	24.0
CC(Sc1nc2c(c(=O)[nH]1)CCCC2)C(=O)Nc1cccc2ccccc12 (stereo not given)	248.3
C=CCn1c(=O)c(C(=O)Nc2cccc(C)n2)c(O)c2ccccc21	90.8
CCCNC(=O)Nc1ccc2c(c1)OC[C@@H](C)N(Cc1cncnc1)C[C@@H](C)[C@@H](OC)CN(C)C2=O	60.2
CCCNC(=O)N1CCc2nc(-c3ccc(OC)cc3)sc2C1	-10.5
O=C(NCc1cccc2[nH]ccc12)c1cn(CCCc2ccccc2)nn1	-36.2
CC(Cc1cnccn1)n1cc(-c2ccnc3ccccc23)nn1 (stereo not given)	-10.6
O=C(C[C@H]1CC[C@@H]2[C@H](COC[C@@H](O)CN2CC2CCOCC2)O1)NCc1ccc(Cl)cc1	-36.0
Cc1cccc(CN2C(=O)CC3C2CCN3S(=O)(=O)C2CC2)n1 (stereo not given)	5.0
CC(C)(C)NCC(O)c1cc(O)cc(O)c1 (stereo not given)	19.6&14.4&11.5
CC(C)CN1C[C@H]2[C@@H](C(=O)NCc3ccccc3)CCS(=O)(=O)[C@H]2C1	29.8
OCC1OC2OC3C(CO)OC(OC4C(CO)OC(OC5C(CO)OC(OC6C(CO)OC(OC7C(CO)OC(OC8C(CO)OC(OC1C(O)C2O)C(O)C8O)C(O)C7O)C(O)C6O)C(O)C5O)C(O)C4O)C(O)C3O (stereo not given)	26.6
COC(=O)c1c(NCCc2c[nH]c3ccccc23)c2cc(Cl)ccc2[nH]c1=O	-114.8*
CCOC(=O)c1ccc2c(c1)N(Cc1nc(-c3ccc(C)cc3)oc1C)C(=O)c1ccccc1S2	58.0
O=C(O)CSC1=NC2CCCCC2N1 (stereo not given)	-5.8
Fc1ccc(C2CCCN2Cc2cnc(N3CCOCC3)s2)cc1 (stereo not given)	-50.3
O=C1COc2ccc(C(O)C3CCN(C(=O)c4nsc(Cl)c4Cl)CC3)cc2N1 (stereo not given)	50.9
COc1ccc(C[C@H]2CCn3nncc3COC[C@@H](c3ccccc3)NC2=O)cc1	-11.6
O=C(CCN1CCCCC1)N[C@@H]1CC[C@@H](CC(=O)N2CCC(Cc3ccccc3)CC2)O[C@@H]1CO	-3.9
C=CCNC(=O)c1ccc(-c2ccc(F)c(CO)c2)o1	44.6
CC1=C(C(=O)NCCCN2CCC(N3CCCCC3)CC2)C2(CCCCC2)OC1=O	18.0

7 compounds from above, sorted by molecular weight, ascending.
SMILES	Tg IFNy HTS
CC(C)(C)NCC(O)c1cc(O)cc(O)c1 (stereo not given)	19.6&14.4&11.5
CC(Cc1cnccn1)n1cc(-c2ccnc3ccccc23)nn1 (stereo not given)	-10.6
CCCNC(=O)N1CCc2nc(-c3ccc(OC)cc3)sc2C1	-10.5
Fc1ccc(C2CCCN2Cc2cnc(N3CCOCC3)s2)cc1 (stereo not given)	-50.3
COc1cccc(CC2CN(C(=O)c3ccc(S(N)(=O)=O)cc3)CCO2)c1 (stereo not given)	5.3
CCOC(=O)c1ccc2c(c1)N(Cc1nc(-c3ccc(C)cc3)oc1C)C(=O)c1ccccc1S2	58.0
CCCNC(=O)Nc1ccc2c(c1)OC[C@@H](C)N(Cc1cncnc1)C[C@@H](C)[C@@H](OC)CN(C)C2=O	60.2

Remaining list, next part.
SMILES	Tg IFNy HTS
CCCC(=O)N1CC2(CN(Cc3nccs3)C2)c2c([nH]c3cc(OC)ccc23)[C@@H]1CO	-5.4
O=C(C[C@H]1CC[C@H]2[C@@H](COC[C@H](O)CN2CC2CCOCC2)O1)NCC1CCCCC1	-19.2
COc1ccccc1-c1ccc([C@H]2[C@@H](C#N)N[C@@H]2CO)cc1	14.1
Cc1ccc(-c2nc(Cn3nnc(-c4nc(-c5ccccc5Br)no4)c3C)c(C)o2)cc1	-23.4
CN(Cc1cc(-c2ccc(F)cc2)c[nH]c1=O)CC(O)Cn1ccc2ccccc21 (stereo not given)	224.8
COC(=O)CN(C(C)=O)c1nc(C)c(Cl)c(OC)n1	-14.6
OC1(CN2CCc3ccccc3C2)CCNC1 (stereo not given)	2.1
CC1Cc2ccccc2N1C(=O)C(=O)N1CCN(C)C2(CCN(C)CC2)C1 (stereo not given)	10.3
COC(=O)[C@H](Cc1c[nH]c2ccccc12)N1Cc2ncccc2C1=O	25.0
COc1ccc2c3c(n(C)c2c1)[C@H](CO)N(Cc1ccccc1OC)CC31CN(C)C1	432.3
COC(=O)c1cc2n(n1)CCCN(C(=O)c1cc(C)[nH]c(=O)c1)C2	5.1
Cc1ccc(S(=O)(=O)N(C)C[C@@H]2OCCCC[C@@H](C)Oc3ccc(NC(=O)c4ccncc4)cc3C(=O)N([C@H](C)CO)C[C@@H]2C)cc1	12.5
C[C@H](CO)N1C[C@H](C)[C@H](CN(C)Cc2ccc(C(F)(F)F)cc2)OCCCC[C@H](C)Oc2ccc(NC(=O)Nc3cccc4ccccc34)cc2C1=O	177.2
O=C(NC1CC2(CCN(Cc3ccccn3)CC2)C1)c1ccnnc1	-2.6
O=C(CCc1nc(-c2ccccc2F)no1)N1CCC[C@H]1CN1CCCC1	6.1
COCCCNC(=O)COc1ccc(S(=O)(=O)N2CCOCC2)cc1Cl	-10.7
Cc1nc(-c2ccc(F)cc2)sc1CCNC(=O)c1ccc(Br)o1	-56.7
CCN(CC)c1nc2n(c(=O)n1)CCN2CC	7.7
Cc1cccc(N2CCN(CC(=O)N(C)Cc3c(C)noc3C)CC2)c1	1.3
COCCCN(C(=O)NCc1cccc(F)c1)C1CCN(C)CC1	-1.0
Cc1cnc(C)c(N2CCC3(CCCN(C)CC3)CC2)n1	-8.0
O=C(c1ccnnc1)N1CCC2(CC1)CN(CCO)Cc1ccccc12	-53.9
Cc1nc2ccc(Cl)cn2c1C(=O)O	18.5
Cc1cc(-c2cc(=O)n(CC(=O)NC3CCCCCC3)nc2C(C)C)on1	1.4
CCOc1ccc(-c2cc3c(=O)n(Cc4nc(-c5ccc(OCC)cc5)oc4C)ccn3n2)cc1	38.6

Among those listed so far, these contain a CF3 group.
SMILES	Tg IFNy HTS
OC[C@H]1[C@@H](c2ccccc2)C2(CN(CCC(F)(F)F)C2)N1Cc1cncnc1	-30.2
O=C(CSc1nc2ccccc2o1)N1CCc2c([nH]c3ccccc23)C1C(F)(F)F (stereo not given)	24.0
C[C@H](CO)N1C[C@H](C)[C@H](CN(C)Cc2ccc(C(F)(F)F)cc2)OCCCC[C@H](C)Oc2ccc(NC(=O)Nc3cccc4ccccc34)cc2C1=O	177.2

(list continues)
SMILES	Tg IFNy HTS
Cc1ccc(C)n1-c1c(C(=O)NCCc2c[nH]c3ccccc23)sc2ncccc12	180.9
CCC(=O)NC1Cc2ccccc2C(c2ccccc2)C1 (stereo not given)	23.8&14.2
CC(C)CC(=O)N1CC[C@H]2CN(C)S(=O)(=O)[C@@H]2CC1	-14.1
CC(C)(C)c1cc(-c2nc(-c3ccc(C(F)(F)F)cc3)no2)n(Cc2ccccc2)n1	-13.8
CCOC(=O)c1cc2c(c(-c3cccc(Br)c3)n1)[C@H](CCO)N(C(=O)NC(C)C)C2	87.8
CN1CC2(CCCN(C(=O)Cn3cc(C(N)=O)c4ccccc43)C2)OC1=O (stereo not given)	14.3
C/C(=C(/CCO)SSCC1CCCO1)N(C=O)Cc1cnc(C)nc1N (stereo not given)	24.1
CC(=O)Nc1ccc(CN2CCC(n3nc(C)cc3C)C2)cc1 (stereo not given)	0.7
CO[C@H]1CN(C)C(=O)c2cc(NS(=O)(=O)CC(F)(F)F)ccc2OC[C@H](C)NC[C@@H]1C	50.2
C[C@H](CO)N1C[C@H](C)[C@H](CN(C)S(C)(=O)=O)Oc2ccc(NC(=O)Nc3ccc(F)cc3)cc2CC1=O	-36.9
CCCCOCC(=O)N1Cc2cnc(CC)nc2C1	4.7
COc1cc(Cl)c(NS(=O)(=O)c2ccc3[nH]c(=O)ccc3c2)c(OC)c1	i
Nc1c(C(=O)CCC(=O)O)oc2ccc(Cl)cc12	20.4
Cc1ccc(C(=O)NCCNC(=O)c2ccccc2)cc1	13.6
COc1ccc2c(cc(C(=O)NCc3cc(N(C)C)nc(-c4cccnc4)n3)n2C)c1OC	-25.4
COc1cc(CN2[C@@H]3CNC[C@H]2C3c2ccc(-c3ccc(C)cc3)cc2)cc(OC)c1 (stereo not given in full)	26.5
CCn1c(CNc2nc(-c3ccccc3)cs2)nnc1SCC(N)=O	-20.0
CCC(=O)Nc1ccc2c(c1)C(=O)N(C)C[C@@H](OC)[C@@H](C)CN(C(=O)Cc1cccnc1)[C@H](C)CO2	74.5
Cn1c(CNC(=O)C2CCC2)nc2c1CN(S(=O)(=O)c1ccc(Cl)s1)CC2	-39.4
CCC(=O)N1[C@H](CO)[C@@H]2c3ccccc3N(C(=O)Nc3ccc(Cl)cc3)C[C@@H]21	20.5
Cc1cc(C(=O)N2CCC(N3CCCC(C(=O)N4CCOCC4)C3)CC2)no1 (stereo not given)	5.7
Cc1ccsc1[C@@H]1CCN(C(=O)c2ccc(C#CC(C)(C)O)o2)C[C@H]1O	-2.9
COc1ccc(S(=O)(=O)Nc2ccc3c(c2)C(=O)N([C@@H](C)CO)C[C@H](C)[C@@H](CN(C)S(=O)(=O)c2ccc(Cl)cc2)OCCCC[C@H](C)O3)cc1	-129.6*
O=C(C1CCCCN1Cc1ccccc1)N1CCC(CO)(Cc2ccc(Cl)cc2)CC1 (stereo not given)	23.2
CN(C1CCCNCC1)S(C)(=O)=O (stereo not given)	-15.6
The results go on:
SMILES	Tg IFNy HTS
COc1ccc2c3c([nH]c2c1)[C@@H](CO)NCC31CN(Cc2cc(F)ccc2F)C1	-8.9
Cc1ncsc1C(=O)NC(Cc1cc(=O)[nH]c(-c2ccccn2)n1)c1ccc(F)cc1 (stereo not given)	-14.7
C[C@@H](NC(=O)C[C@@H]1CC[C@@H]2[C@H](COC[C@@H](O)CN2C(=O)Nc2cccc(Cl)c2)O1)c1ccccc1	-59.0
CCc1csc(N2[C@@H](C#N)[C@@H](c3ccccc3C3=CCCC3)[C@@H]2CO)n1	-17.4
Cc1oc(-c2ccc(NC(=O)COc3ccccc3)cc2)nc1Cn1cccn1	56.4
COc1cc2c(cc1OC)-c1cc(=Nc3c(C)cc(C)cc3C)n(C)c(=O)n1CC2	-5.6
O=C(NCCS(=O)(=O)N1CCCC1)c1cc(-c2ccc(F)cc2)no1	2.4
O=C(NCc1n[nH]c2c1CCCC2)C1CCN(S(=O)(=O)c2ccc(F)cc2)C1 (stereo not given)	-16.1
O=C(c1ccco1)N1CCN(S(=O)(=O)c2ccc3c(c2)OCCO3)CC1	-6.6
O=C(c1ccccn1)N1C[C@H]2[C@@H](c3ccccc31)[C@H](CO)N2C(=O)C1CCCCC1	1.6
O=c1[nH]c(=O)n([C@H]2C[C@H](O)[C@@H](CO)O2)cc1Br	-44.9
COc1ccc(CN2C[C@H]3COC[C@@]3(CNC(=O)CC3CC3)C2)cc1	0.3
CCOC(=O)c1c(NC(=S)Nc2cc(C)nn2-c2ccccc2)sc(C)c1C	91.1
Cc1nnc(-c2ccc(C(F)(F)F)cn2)nc1C	108.0

Quoted from above for reference:
SMILES	Tg IFNy HTS
CCOC(=O)c1c(NC(=S)Nc2cc(C)nn2-c2ccccc2)sc(C)c1C	91.1
Cc1nnc(-c2ccc(C(F)(F)F)cn2)nc1C	108.0
